# HSV augment – increases HSV replication in cells; AID 1956; 220,000 compounds, 0.005% hits; maximum fold increase; HSV replication augmentation in cells, fold increase;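 active means peak rise of 1.5-fold or more in the series; tested in PC3 cells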;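 further: first round at 10 µM; read as green reporter fluorescence; hits show the peak of a series up to 25 µM; 1 = signal of infected wells without compound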
# GALR2 agonist – activates the human galanin receptor 2; O43603; 140,000 compounds, 0.48% hits; AID 803; activation, %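 (tested at 5 µM)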; GALR2-expressing cells, agonist activation read-out;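 active means above mean plus 3 SD of all compounds, about 5% in these data, not always enough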;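 further: 0% = vehicle buffer wells and 100% = reference agonist at full effect; tested in CHO reporter cells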
# Target sequence (O43603 whole entry, looked up): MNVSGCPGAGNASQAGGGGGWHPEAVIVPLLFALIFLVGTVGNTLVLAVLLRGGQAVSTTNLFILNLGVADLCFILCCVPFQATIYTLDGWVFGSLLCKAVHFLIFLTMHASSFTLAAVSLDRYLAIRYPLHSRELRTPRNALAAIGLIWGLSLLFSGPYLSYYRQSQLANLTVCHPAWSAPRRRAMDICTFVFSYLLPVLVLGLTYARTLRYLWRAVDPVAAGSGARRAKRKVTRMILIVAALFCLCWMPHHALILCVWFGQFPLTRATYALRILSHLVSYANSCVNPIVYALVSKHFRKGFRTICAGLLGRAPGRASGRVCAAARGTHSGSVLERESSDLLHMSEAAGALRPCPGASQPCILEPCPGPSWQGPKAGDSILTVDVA
# INS promoter inh – TRM-6 insulin promoter activity inhibition; TRM-6 cells (human fetal islet line), insulin promoter-eGFP reporter, imaging; reporter expression induced with tamoxifen; 130,000 compounds, 0.9% hits; AID 1273; inhibition, % at 2 µM;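 active means inhibition above the mean plus 3 SD, with well images judged a real hit on visual review, cut at about 60% in these data, passing the limit was not always enough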
# RGS16-Gao HTS – RGS16-Galphao interaction regulator (human). binding response (% of control), % at 10 µM. AID 1441. 220,000 compounds, 0.38% hits. O15492+P09471. bead-based flow cytometry RGS16-Galphao binding, fluorescence; actives lie on both sides;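 active means below 25% or above 175%, edge rows of some plates excepted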;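 further: Galphao activated by GDP with aluminum fluoride before binding; 100% = wells without compound and 0% = beads without RGS; some results beyond the cut were filed as inactive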
# PKD1 kinase inh – inhibitors of human PKD1 kinase. inhibition, %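 (about 10 µM by stock and volumes)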. PKD1 kinase fluorescence polarization assay. Q15139. 200,000 compounds, 0.056% hits;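 active means inhibition of 50% or more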;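 further: controls were vehicle for no effect and a reference inhibitor for full effect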
# INS promoter inh cell count – further read-out of INS promoter inh, marked with its call; normalized cell count, %; measured here: cell count, toxicity; reference of the scale not given here;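 cells exposed to compound for 48 h; stained nuclei by imaging scaled within each plate; lower means fewer cells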
# HSV augment primary fold – also measured in HSV augment; calls as there; fold increase; compound at 10 µM; measured here: primary screen fold increase 10 uM; tested in PC3 cells;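 GFP signal in the first replicate; 1 = infected wells without compound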
# * hit, by the source's call; i = inactive; / = not tested or not shown; & = joins results of further samples. Rows were taken by chance; overall some 1.2% were active at least once.
SMILES,HSV augment,HSV augment primary fold,GALR2 agonist,INS promoter inh,INS promoter inh cell count,RGS16-Gao HTS,PKD1 kinase inh
COc1ccc(C(CC(=O)c2ccc(C)cc2)C(C#N)C#N)cc1OC (stereo unspecified),i,0.54,-1.1,41,86,102,-6
O=C(COC(=O)[C@@H]1CCCN1S(=O)(=O)c1ccccc1F)Nc1ccc(OC(F)F)cc1,i,0.91,/,13,153,103,5
O=[N+]([O-])c1ccc(/C=N/Nc2nc(N3CCCCC3)nc(N3CCCCC3)n2)o1,i,0.89,-3.4,18,90,100,2
O=[N+]([O-])c1ccc(SCCc2ccncc2)cc1,i,1.1&0.9,/,/,/,96&101,/
COc1ccc(C)cc1NC(=O)CC(NC(C)=O)c1ccccc1 (stereo unspecified),i,1.1,/,19,80,107,-2
COc1ccc(Br)cc1/C=N/NC(=O)c1ccco1,i,0.98,/,/,/,75,-4
O=c1c2ccccc2nc(/C=C/c2c[nH]c3ccccc23)n1-c1ccc([N+](=O)[O-])cc1,i,1,-1.1,-26,124,103,3
O=C(C1CCCN(S(=O)(=O)c2cccc3nsnc23)C1)N1CC=C(c2ccccc2)CC1 (stereo unspecified),i,0.93,-5.0,-15,97,156,3
O=C(c1cc2cc([N+](=O)[O-])ccc2s1)N1CCCCC1,i,0.92,/,-24,132,107,0
CCN(CCCNC(=O)CNC(=O)Cn1cnc2ccccc2c1=O)c1cccc(C)c1,i,0.82,-1.5,/,/,101,-5
O=C(CSc1ncc(-c2ccc(F)cc2)n1Cc1ccco1)Nc1nccs1,i,0.88,-0.9,-53,87,74,-6
Cc1cc(Cl)cc(C)c1OCCCCN1CCOCC1,i,0.93,-2.2,-133,62,106,-5
CCN(CC)CCCNC(=O)c1cc(-c2ccc(Cl)c(Cl)c2)on1,i,0.71,-1.2,/,/,103,6
Cc1cc(C)cc(N(C(C)C(=O)NC2CCCC2)S(C)(=O)=O)c1 (stereo unspecified),i,0.97,1.6,-20,74,69,-6
CC1(C)CC2CC(C)(CN2C(=O)COC(=O)c2ccc(Cl)c(N)c2)C1 (stereo unspecified),i,1,-1.3,16,90,99,-5
CCC(=O)c1c[nH]c(C(=O)NCCCn2ccnc2)c1,i,0.94,-0.9,4,77,99,-10
CN(C(=O)CSc1nnc(NC2CCCCC2)s1)C1CCS(=O)(=O)C1 (stereo unspecified),i,1,-2.5,0,125,95,1
CC(=O)Nc1ccc2c(c1)CCCC2,i,1,/,/,/,101,/
Fc1ccc(C2=CC(c3ccco3)n3ncnc3N2)cc1 (stereo unspecified),/,/,-0.1,42,111,111,-7
CCN(CC)c1ccc(NC(=O)CN2CCN(c3ccc(F)cc3)CC2)cc1,i,0.92,-1.8,/,/,104,2
CC(C)OC(=O)CSc1ncnc2c1cnn2-c1ccccc1,i,0.84,0.1,/,/,102,-13
Cc1nc(C)c(NC(=O)OC(C)C)cc1NC(=O)OC(C)C,i,0.98,/,55,125,115,2
N#Cc1c(N)n[nH]c1-c1cc2c([nH]1)CCCC2,i,0.56,-3.2,31,110,111,6
O=C(Nc1nc2ccc([N+](=O)[O-])cc2s1)c1ccncc1,i,1,/,/,/,98,/
COC(=O)c1ccc(C(=O)OC)c(NC(=S)N2CCN(C)CC2)c1,i,1,/,/,/,99,-7

# Structures listed so far containing a carbonyl joined to an NH by a bond outside any ring, in the order listed:
SMILES,HSV augment,HSV augment primary fold,GALR2 agonist,INS promoter inh,INS promoter inh cell count,RGS16-Gao HTS,PKD1 kinase inh
O=C(COC(=O)[C@@H]1CCCN1S(=O)(=O)c1ccccc1F)Nc1ccc(OC(F)F)cc1,i,0.91,/,13,153,103,5
COc1ccc(C)cc1NC(=O)CC(NC(C)=O)c1ccccc1 (stereo unspecified),i,1.1,/,19,80,107,-2
COc1ccc(Br)cc1/C=N/NC(=O)c1ccco1,i,0.98,/,/,/,75,-4
CCN(CCCNC(=O)CNC(=O)Cn1cnc2ccccc2c1=O)c1cccc(C)c1,i,0.82,-1.5,/,/,101,-5
O=C(CSc1ncc(-c2ccc(F)cc2)n1Cc1ccco1)Nc1nccs1,i,0.88,-0.9,-53,87,74,-6
CCN(CC)CCCNC(=O)c1cc(-c2ccc(Cl)c(Cl)c2)on1,i,0.71,-1.2,/,/,103,6
Cc1cc(C)cc(N(C(C)C(=O)NC2CCCC2)S(C)(=O)=O)c1 (stereo unspecified),i,0.97,1.6,-20,74,69,-6
CCC(=O)c1c[nH]c(C(=O)NCCCn2ccnc2)c1,i,0.94,-0.9,4,77,99,-10
CC(=O)Nc1ccc2c(c1)CCCC2,i,1,/,/,/,101,/
CCN(CC)c1ccc(NC(=O)CN2CCN(c3ccc(F)cc3)CC2)cc1,i,0.92,-1.8,/,/,104,2
Cc1nc(C)c(NC(=O)OC(C)C)cc1NC(=O)OC(C)C,i,0.98,/,55,125,115,2
O=C(Nc1nc2ccc([N+](=O)[O-])cc2s1)c1ccncc1,i,1,/,/,/,98,/

# In the list so far, these have a cyano group.
SMILES,HSV augment,HSV augment primary fold,GALR2 agonist,INS promoter inh,INS promoter inh cell count,RGS16-Gao HTS,PKD1 kinase inh
COc1ccc(C(CC(=O)c2ccc(C)cc2)C(C#N)C#N)cc1OC (stereo unspecified),i,0.54,-1.1,41,86,102,-6
N#Cc1c(N)n[nH]c1-c1cc2c([nH]1)CCCC2,i,0.56,-3.2,31,110,111,6

# (listing goes on)
SMILES,HSV augment,HSV augment primary fold,GALR2 agonist,INS promoter inh,INS promoter inh cell count,RGS16-Gao HTS,PKD1 kinase inh
Cc1ccc(S(=O)(=O)N2c3ccccc3OCC2c2ccccc2)cc1 (stereo unspecified),i,0.8,-2.2,17,66,126,-15
CC(=O)Nc1cccc(OCC(=O)NCCC2=CCCCC2)c1,i,0.91,/,-40,104,105,-6
COc1cc2c(cc1OC)C(C)N(S(=O)(=O)c1cn(C)cn1)CC2 (stereo unspecified),i,1,/,/,/,97,/
O=S(=O)(N/N=C/c1cccc(OC2CSC2)c1)c1ccccc1,i,0.74,0.7,0,128,107,-11
CCN(CC)C(=O)CC(c1ccc(OC)cc1)c1c(OC)cc(OC)c2ccc(=O)oc12 (stereo unspecified),i,0.69,/,/,/,96,/
Cc1ccc(NC(=O)N/C=C/c2ccco2)cc1C,i,0.81,-2.1,/,/,82,-7
CCCCNCc1ccc(SC)cc1,i,0.75,-0.2,/,/,101,-9
CC1CC(Nc2ccccc2)=CC(=O)O1 (stereo unspecified),i,1,-1.5,9,99,106,-4
COc1ccc(Cl)cc1C(=O)C1CCCN(Cc2cnc(N3CCOCC3)s2)C1 (stereo unspecified),i,0.98,/,-57,72,109,0
Cc1oc(-c2cccs2)nc1CN1CC[C@@](O)(c2ccccc2)[C@H]2CCCC[C@@H]21,i,0.84,/,/,/,97,-4
c1ccc(-c2nc3c(ccc4ccccc43)[nH]2)nc1,i,0.95,-2.1,38,127,96,-5
O=C(NCC(O)c1ccccc1)c1ccccc1 (stereo unspecified),i,0.87,/,/,/,107,/
O=C(c1ccccc1)N1CCCC(C(=O)N2CCCCCC2)C1 (stereo unspecified),i,0.93,-2.1,0,134,102,-7
Cc1ccc(SCc2[nH]nc3c2C2(CCSCC2)C(C#N)=C(N)O3)cc1,i,0.88,0.0,7,105,100,0
CCN(CC)S(=O)(=O)c1cccc(NC(=O)CSc2nnc(N)s2)c1,i,0.96,/,25,108,97,-5
Cc1noc(C)c1S(=O)(=O)N1CCCCC1,i,0.81,-1.5,-12,119,103,3
CCCCC(CCC(=O)O)(C(=O)OCC)c1csc(Nc2ccccc2)n1 (stereo unspecified),i,0.97,/,38,89,102,0
Clc1ccc2[nH]c3c(NCC4CCCO4)ncnc3c2c1 (stereo unspecified),i,1,0.0,56,68,98,-9
COc1ccc(/C=C/C(=O)Nc2c(C(=O)O)[nH]c3ccccc23)cc1OC,i,1,/,/,/,106,/
CN(C)CCCN(C(=O)c1ccco1)c1nc2ccc(Cl)cc2s1,i,1.1,/,0,93,96,2
COc1cc(NC(=O)C/C(C)=N/NC(=O)c2cccc(O)c2)c(OC)cc1Cl,i,0.92,0.3,7,99,154,0
Cc1[nH]c2ccccc2c1N=Nc1ccccc1C(=O)O,i,1.1,0.1,15,112,28,4
COc1ccc(/C=N/n2cncn2)cc1Cn1nc(C)c([N+](=O)[O-])c1C,i,0.88,/,/,/,102,/
Cc1oc(-c2ccccc2Cl)nc1CN1CCCN(C(=O)c2ccco2)CC1,i,0.87,/,20,46,114,-4
O=C(NCCN1CCCC1)c1ccc(Cn2c(=S)[nH]c3ccc(Br)cc3c2=O)cc1,i,0.83,/,0,121,100,1
# New compounds follow:
SMILES,HSV augment,HSV augment primary fold,GALR2 agonist,INS promoter inh,INS promoter inh cell count,RGS16-Gao HTS,PKD1 kinase inh
CNC(=O)Cc1nc2ccccc2n1CC(=O)Nc1cc(C)cc(C)c1,i,0.98,/,/,/,103,-1
COc1cccc(-c2nn(C)c3sc(C(=O)N4CCN(c5ccccc5)CC4)cc23)c1,i,1.1,-0.5,/,/,107,-16
COC(=O)C1=C(C(=O)OC)C(c2cc([N+](=O)[O-])ccc2O)c2sc(=O)[nH]c2S1 (stereo unspecified),i,0.9,/,/,/,98,-1
COCCN(CC(=O)NCC1CCCO1)C(=O)CCC(=O)Nc1cc(C)on1 (stereo unspecified),i,0.99,-0.6,-12,79,97,-16
O=C(CN1CCN(C(=O)C2COc3ccccc3O2)CC1)Nc1ccccc1 (stereo unspecified),i,0.91,/,/,/,83,/
CCOC(=O)C(=CNNc1cccc(Cl)c1)C(=O)OCC,i,0.95,/,/,/,97,/
COc1ccc(OC)c(S(=O)(=O)Nc2ccc(O)c(Sc3ncn[nH]3)c2)c1,i,1.3,-2.9,-81,38,92,-5
Cc1ccc(NC(=O)Nc2cccs2)cc1,i,1,-1.4,/,/,97,-13
Cc1ccc(S(=O)(=O)c2c(C)nn(C(C)(C)C)c2OC(=O)c2ccc(Br)o2)cc1,i,1,-0.7,9,63,88,-6
CCCNC(=O)NC(=O)CSc1cccc(C(F)(F)F)c1,i,1,/,-145,25,110,-7
Cc1nc(-c2cccnc2)sc1C(=O)Nc1ccc(Cl)cc1,i,0.84,-1.6,-23,93,105,12
CCOC(=O)C(C)c1c(C(=O)c2ccc(C)nc2)c2ccccc2n1C (stereo unspecified),i,0.95,/,/,/,100,/
CCCN1C(=O)C(O)(C/C(C)=N/O)c2ccccc21 (stereo unspecified),i,1.1,-1.9,/,/,97,-8
